Assay outcomes as filed in PubChem BioAssay.
miR-21 FLuc: qHTS Assay for Modulators of miRNAs and/orActivators of miR-21; HeLa miR-21 FLuc reporter, luciferase, 48 h; Potency, µM (top dose mostly 38.3 µM), without a hit: at the top dose reporter change, positive = more light; 340,000 tested, under 10 active; active = well fitted rising curve with a large enough effect; inconclusive = small, poorly fitted or top-dose-only effect; inactive = no such curve, though single readings can be large or run the other way;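 further: % of control where 0% means no effect; miR-21 action dims this reporter so a rising signal means less miR-21 action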
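Compounds were titrated across several concentrations (up to approximately 40 uM) and incubated 48 hours with HeLa miR-21-FLuc reporter cells (miR-21 target sequence downstream of FLuc, endogenous miR-21). Readout was firefly luciferase luminescence after lytic detection reagent.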
GLA inh pH 4.5: qHTS Assay for Inhibitors of Human alpha-Galactosidase at pH 4.5 | Alpha-galactosidase A (Homo sapiens), P06280 | purified enzyme, 4-MU-alpha-Gal fluorescence, pH 4.5 | activity change, negative = inhibition, % at 105 µM | 230,000 tested, under 10 active | AID 1467, 2008; inconclusive = small, poorly fitted or top-dose-only inhibition, or a rising curve; inactive = flat fitted curve, though single readings scatter; no compound was filed as active;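 further: 0% = full activity with enzyme and -100% = basal without enzyme; dose as in the result columns while the protocol names 77 µM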
Target sequence (P06280 whole entry, looked up): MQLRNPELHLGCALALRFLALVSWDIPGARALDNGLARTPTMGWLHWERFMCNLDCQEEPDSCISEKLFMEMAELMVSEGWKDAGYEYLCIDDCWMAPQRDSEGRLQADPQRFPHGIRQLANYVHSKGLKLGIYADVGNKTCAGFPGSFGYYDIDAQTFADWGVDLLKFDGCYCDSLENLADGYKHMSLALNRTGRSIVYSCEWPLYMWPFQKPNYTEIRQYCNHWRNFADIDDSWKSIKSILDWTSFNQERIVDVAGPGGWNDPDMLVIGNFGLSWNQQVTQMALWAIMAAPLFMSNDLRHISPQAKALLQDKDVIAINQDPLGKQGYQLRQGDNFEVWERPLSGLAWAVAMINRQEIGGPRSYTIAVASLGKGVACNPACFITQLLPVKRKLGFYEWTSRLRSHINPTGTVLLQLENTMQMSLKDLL
Rango dissoc inh: qHTS Assay for Inhibitors of RanGTP induced Rango (Ran-regulated importin-beta cargo) - Importin beta complex dissociation; Snurportin-1 (Homo sapiens) + GTP-binding nuclear protein Ran (Homo sapiens) + Importin …; Biochemical FRET Rango-importin beta, RanGTP-induced dissociation; Potency, µM (highest dose often 46.1 µM), inactives show at the top dose activity change, negative = inhibition; 0.071% of 340,000 active; AID 540253, 2011; active means falling FRET ratio curve, often poorly fitted, with flat reads before Ran was added; inconclusive means other falling curves, or compound fluorescence or quenching; inactive means flat or rising ratio curve;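 further: potency means the concentration at half of the fitted maximal effect; % of control where 0% means no effect; nearly all actives have a fitted effect of over 45% in size; -100% = wells without RanGTP and RCC1; the record marks most hits as doubtful in a second field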
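Compounds sat 5 min at room temperature with 0.1 uM Rango biosensor plus 0.25 uM importin beta, then FRET pre-read. RanGTP-RCC1 (0.6 uM Ran, 2mM GTP, 0.2 uM RCC1) added for 45 min, and the CFP/YFP post-read measured blocked complex dissociation.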
Rango-impB inh: qHTS Assay for Inhibitors of Rango (Ran-regulated importin-beta cargo) - Importin beta complex formation | AID 540263, 2011 | 0.031% of 340,000 active | Importin subunit beta-1 (Homo sapiens), Q14974 | Potency, µM (doses to about 92.2 µM), for inactives: top-dose inhibition of complex formation | Rango CFP/YFP FRET sensor + importin beta, 45 min; active = rising FRET ratio curve, often small or poorly fitted; inconclusive = mostly compound fluorescence or quenching in the first reads; inactive = flat curves in all reads;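 further: potency means the concentration at half of the fitted maximal effect; 0% = DMSO wells and 100% = buffer wells lacking importin beta; nearly all actives have a fitted effect of over 15% in size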
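Inhibition scored from the CFP 486 nm/YFP 530 nm FRET ratio 45 min after adding 0.125 microM importin beta to 50 nM Rango biosensor preincubated 5 min with compound (room temperature, PBS with DTT, Tween-20, BSA). No-importin wells as positive control.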
* marks the source's active call; other numbers are inactive results; ? = inconclusive; . = not tested or not shown; & = joins results of further samples. This is a subset; rates above refer to the full screens.

Values in the order – miR-21 FLuc	Rango dissoc inh	GLA inh pH 4.5	Rango-impB inh
COc1cc2c(cc1OC)C(c1cc3cc4c(cc3[nH]c1=O)OCO4)N(C(=O)C(C)C)CC2 (stereo not given)
    -13%	-18%	-9	-1.4%
CCc1nc(-c2ccc(OC)c(OC)c2)cc2cc(OC)c(OC)cc12
    -3%	0%	1	2.7%
CCCN(CCC)CCNC(=O)C1c2ccccc2C(=O)N2CCc3ccccc3C12 (stereo not given)
    0%	1%	7	0.1%
CCn1c(NC(=O)c2cccs2)nc2ccccc21
    -14%	4%	-4	-1.1%
Cc1cc(=O)nc2c3ccccc3n(CC(=O)NCCC3=CCCCC3)n12
    0%	15%	.	-1.4%
Cc1ccccc1NC(=O)CSc1nc(N2CCCCC2)nc(N2CCCCC2)n1
    0%	-4%	3	-1.9%
CCOc1ccc(CCNC(=O)COC(=O)c2cc(OC)c(OC)c(OC)c2)cc1OCC
    7%	.	5	.
CCC(c1nnc(SCC(=O)Nc2cc(S(C)(=O)=O)ccc2Cl)n1Cc1ccccc1)N(C)C (stereo not given)
    -4%	-1%	.	0.3%
Cc1ccc(F)c([C@H]2[C@@H]3C=CCC[C@@]3(C)C(=O)N2Cc2ccccc2)c1
    12%	11%	-2	-0.1%
N#CCc1ccc(OC(=O)c2ccncc2)cc1
    .	1%	.	-1.8%
CN1C(=O)C(CC(=O)NCCc2ccccc2)N(NC(=O)c2cccc(F)c2)C1=S (stereo not given)
    -2%	-9%	.	-0.2%
Cc1oc2c(C)c(O)ccc2c(=O)c1-c1ccc2ccccc2n1
    0%	4%	5	-2.4%
CCCCNc1ccc(C(CC(N)=O)NC(=O)c2cc(C)cc(C)c2)cc1[N+](=O)[O-] (stereo not given)
    -3%	1%	.	0.3%
CC(OC(=O)c1cccs1)C(=O)NCc1cccs1 (stereo not given)
    -2%	2%	0	6.0%
CCCCOC(=O)Nc1nnc(Cc2ccc(Cl)cc2)s1
    1%	-19%	-2	0.8%

(more compounds)
Values in the order – miR-21 FLuc	Rango dissoc inh	GLA inh pH 4.5	Rango-impB inh
CCc1nc2cc(Cl)c(Cl)cc2nc1CC
    -6%	0%	-2	6.1%
Cc1nn(Cc2ccccc2)c(C)c1NC(=O)Cn1nc([N+](=O)[O-])c(Cl)c1C
    -1%	12%	-17	0.1%
CCn1nnnc1SCCSc1nnnn1CC
    -8%	1%	6	1.0%
COc1ccccc1CNC(=O)CSc1nc2nc(C)cc(C)n2n1
    -5%	11%	11	-1.1%
Cc1ccc(S(=O)(=O)N2CCC(C(=O)Nc3ccccc3N3CCCC3)CC2)c(C)c1
    .	-4%	.	0.4%
CC(C)C(c1nnnn1Cc1ccccc1)N1CCC(C(N)=O)CC1 (stereo not given)
    -1%	42%	-23	-3.6%
CN(C)CCSc1nc(N)c2c3c(sc2n1)COC(C)(C)C3
    -7%	-3%	-4	-0.1%
O=C(O)c1ccc(OS(=O)(=O)c2cccc(C(F)(F)F)c2)cc1
    .	0%	.	-0.2%
COC(=O)/C=C1\NCCNC1=O
    -1%	10%	-4	4.3%
CCCCCN(C(=O)CCC(=O)OCC(=O)N(C)Cc1ccccc1C)c1c(N)n(CCCC)c(=O)[nH]c1=O
    .	0%	.	0.4%
O=C(Cc1ccc(F)cc1)NCCS(=O)(=O)N1CCN(c2ccccc2)CC1
    .	-9%	.	5.7%
COc1ccc(N2CCN(C(=O)COC(=O)Cc3ccc(F)cc3)CC2)cc1
    .	-19%	.	3.6%
COc1ccc(S(=O)(=O)n2ccnc2C)c(C)c1C
    0%	33%	.	1.5%
O=C(NCCN1CCCC1)c1ccc2c(c1)N(Cc1ccccc1)C(=O)c1ccccc1S2(=O)=O
    6%	23%	.	3.4%
CCOC(=O)N1CCC(NC(=O)c2oc3c(C)c(C)ccc3c2C)CC1
    .	0%	.	-2.3%

A different layout for part of the listing above:
| SMILES | miR-21 FLuc | Rango dissoc inh | GLA inh pH 4.5 | Rango-impB inh |
| --- | --- | --- | --- | --- |
| COC(=O)/C=C1\NCCNC1=O | -1% | 10% | -4 | 4.3% |
| COc1ccc(S(=O)(=O)n2ccnc2C)c(C)c1C | 0% | 33% | . | 1.5% |

Going on with the list:
Values in the order – miR-21 FLuc	Rango dissoc inh	GLA inh pH 4.5	Rango-impB inh
O=[N+]([O-])c1ccc(CN2CCN(Cc3c[nH]c4ccccc34)CC2)cc1
    2%	-8%	-6	0.4%
CCOC(=O)C(=O)NC(C)c1ccccc1 (stereo not given)
    -2%	-3%	9	-2.5%
CN1CCN(c2nc3c(c(=O)[nH]c(=O)n3C)n2CCCSc2ncccn2)CC1
    -2%	0%	1	0.6%
N=c1n(CCCOc2ccccc2Cl)c2ccccc2n1CC(N)=O
    -3%	-14%	-11	-3.8%
O=C(Nc1nnc(S(=O)(=O)N2CCCCCC2)s1)c1ccc(Cl)cc1
    -4%&-39%	15%	.	-0.5%
Cc1ccc2c(CC(=O)OC(C)C(=O)NCc3ccc4c(c3)OCO4)coc2c1 (stereo not given)
    -5%	-3%	-16	0.4%
Cc1cc(Nc2ccccc2N2CCOCC2)n2ncnc2n1
    -5%	0%	1	0.7%
Cc1cc(C(C)(C)C)oc1C(=O)N1CCN(C(=O)c2oc(C(C)(C)C)cc2C)CC1
    -9%	-6%	-5	-2.9%
O=C(CCCSc1nc2ccccc2[nH]1)Nc1nnc(C2CC2)s1
    5%	-4%	6	-5.6%
COc1ccc(C2c3[nH]c4ccccc4c3CCN2C(=O)c2ccc(=O)n(C)n2)c(F)c1 (stereo not given)
    -13%	-20%	-8	?
COc1cc(C(=O)ONC(=O)c2ccc(OC(F)F)cc2)cc(OC)c1OC
    6%	-7%	.	0.5%
COc1ccc(-c2cc(C#N)nc(NN)n2)cc1
    14%	1%	-12	2.9%
CC(C)Oc1ccc(C(=O)OC(C)C(=O)Nc2nc(-c3cccc([N+](=O)[O-])c3)cs2)cc1 (stereo not given)
    -3%	10%	-1	6.0%
CN(c1ccc(OCC(=O)Nc2cc(Cl)ccc2C(=O)O)cc1)S(=O)(=O)c1ccc(F)cc1
    .	-6%	.	-6.4%
Cc1cc(C)c2nc(-c3ccccn3)cc(C(=O)Nn3cnnc3)c2c1
    -4%	16%	-2	3.1%

(more compounds)
Values in the order – miR-21 FLuc	Rango dissoc inh	GLA inh pH 4.5	Rango-impB inh
C[C@H](NC(=O)c1[nH]cnc1C(=O)N[C@H](C)c1ccccc1)c1ccccc1
    .	8%	.	3.0%
CCCn1c(SCCC(=O)O)nc2ccccc21
    0%	-25%	9	1.4%
CCc1ccc(N(CC(=O)N2CCOCC2)S(C)(=O)=O)cc1
    3%	1%	.	-1.7%
COc1cc(Cl)c(C)cc1NC(=O)CN(C)Cc1cccc(OC)c1OC
    0%	12%	-16	2.7%
COc1ccccc1N1CCN(C(=O)CSc2nnc(NC(=O)C(C)C)s2)CC1
    0%	-23%	-1	0.2%
COc1ccc2[nH]cc(CCNC(=O)Nc3ccccc3C)c2c1
    0%&-2%	3%	.	17%
CC(=O)Nc1cc2c(c([N+](=O)[O-])c1C)C(C)(C)CC2(C)C
    .	16%	.	1.0%
Cc1cccc(Oc2coc3cc(O)ccc3c2=O)c1
    -50%	0%	.	-0.5%
CCCCn1c(=O)n(CC(=O)Nc2ccc(C)c(Cl)c2)c(=O)c2c1ncn2Cc1ccco1
    -5%	-2%	-26	-3.0%
COc1ccc(Cn2c(=O)[nH]c3cc(C(=O)NC4CCCC4)ccc3c2=O)cc1
    0%	5%	-1	-0.1%
Cc1onc(-c2c(F)cccc2Cl)c1C(=O)N1CCCCC1
    -1%	-10%	.	4.4%
CCOCCCn1c(=O)c2ccccc2n2c(=S)[nH]nc12
    0%	-7%	.	1.4%
O=C(NCC1CCCO1)c1ccc(Cn2c(=S)[nH]c3ccccc3c2=O)cc1 (stereo not given)
    -8%	0%	-2	1.5%
O=[N+]([O-])c1ccc(O)c(C=Nc2cccc3ccccc23)c1
    -2%	-22%	.	-0.5%
N#Cc1ccccc1OCC(=O)OCC(=O)Nc1ccc2c(c1)OCO2
    .	-12%	.	-0.3%

(listing goes on)
Values in the order – miR-21 FLuc	Rango dissoc inh	GLA inh pH 4.5	Rango-impB inh
O=C(CCc1cn(Cc2ccc(F)cc2)c2ccccc12)N1CCOCC1
    -6%	3%	.	-1.8%
CCOC(=O)c1c(C)n(CC)c2c1cc(O)c1ccccc12
    -3%	-6%	.	0.9%
CCOc1ccc(S(=O)(=O)N(C)c2ccc(OCC(=O)NCc3cccnc3)cc2)cc1
    -6%	-3%	-10	0.7%
CCCCN1C(=O)Nc2ccccc2S1(=O)=O
    0%	-4%	0	4.1%
CCOc1ccc(NS(=O)(=O)c2ccc(C(=O)N(C)CC(=O)Nc3ccc(C)cc3)cc2)cc1
    .	13%	.	1.1%
Cc1noc(C)c1S(=O)(=O)Nc1ccc2c(c1)C(=O)N([C@H](C)CO)C[C@H](C)[C@@H](CN(C)C(=O)Nc1ccccc1)O2
    .	-1%	.	0.1%
COc1ccc(C(=O)Nc2ccc(NC(C)=O)cc2)cc1S(=O)(=O)N1CCCC1
    .	1%	.	0.9%
Cc1oc(-c2cccs2)nc1CS(=O)CC(=O)NCCCN1CC(C)CC(C)C1 (stereo not given)
    0%	-4%	-8	4.0%
O=C(CNC(=O)c1ccccc1)OCC(=O)c1cccs1
    0%	-2%	.	5.2%
O=C(C[n+]1ccc(C(=O)N/N=C/c2ccc(Cl)cc2Cl)cc1)c1ccccc1
    2%	?	-7	?
CC1(C)CC(=O)C2=C(C1)N(Cc1cccnc1)C(=O)C2(NC(=O)c1cccnc1)C(F)(F)F (stereo not given)
    -2%	9%	-18	2.8%
CCc1nnc(NC(=O)CCC(=O)NCCc2ccc(OC)c(OC)c2)s1
    -7%	?	3	0.0%
C=CCNC(=S)NNc1nc2sc3c(c2c(=O)[nH]1)CC(C)(C)OC3
    1%	-3%	.	0.7%
Cc1ncsc1CCSc1n[nH]c(=O)n1-c1ccccc1
    -13%	-11%	2	3.4%
CSc1nc2ccc(NS(=O)(=O)c3ccc4c(c3)OCCO4)cc2s1
    8%	-4%	-2	9.4%

More results follow:
Values in the order – miR-21 FLuc	Rango dissoc inh	GLA inh pH 4.5	Rango-impB inh
CCOC(=O)c1[nH]nc2c1C(=O)N(Cc1ccccc1)C2=O
    -7%	-1%	-3	-2.5%
NC(=O)[C@@H]1CC2(CC(c3cccc(NC(=O)CC(c4ccccc4)c4ccccc4)c3)=NO2)CN1C(=O)c1ccc(Cl)cc1 (stereo not given in full)
    ?	31%	-12	-4.7%
COc1cccc(CN(C)C(=O)c2cc(COc3c(F)cccc3F)on2)c1
    -29%	-21%	-1	-0.2%
COc1cc(NC(=O)CN2C(=O)CN(C)C2=O)c(C)cc1[N+](=O)[O-]
    6%	-4%	-5	1.2%
COc1ccc(-c2nnc(C(C)Nc3cccc(C(=O)NC4CC4)c3)o2)cc1 (stereo not given)
    .	-1%	.	-2.8%
O=C(NCC(=O)N(c1cccc(F)c1)C(C(=O)NC1CCCC1)c1ccncc1)c1cccs1 (stereo not given)
    -1%	9%	.	-1.3%
O=C(Cn1nnc(-c2ccccc2)n1)c1ccccc1
    -25%	-2%	2	0.9%
Cc1cnc(C(=O)OCC(=O)Nc2ccc(C)c(S(=O)(=O)N3CCCCC3)c2)cn1
    8%	-3%	2	-1.5%
